# Compound activity as filed in PubChem BioAssay.
# NPYLR7 agonist – agonists of mosquito NPYLR7 receptor, primary screen, cell-based, Aedes aegypti, calcium fluorescence, mosquito biting behavior | Aedes aegypti neuropeptide Y-like receptor 7 (NPYLR7) | HEK293T NPYLR7/Galpha15, GCaMP6s calcium fluorescence | activation, % at 10 µM | 270,000 compounds, 0.15% hits; in the data active = activation above about 40%;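 also: 0% = vehicle and 100% = reference agonist at the receptor; some compounds past the cut are filed as inactive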
# NPYLR7 agonist max-min – also measured in NPYLR7 agonist; calls as there; activation, %; measured here: Max-Min RFU normalised activation; some inactives read as strong as hits;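 span of the calcium signal over five minutes; 0% = vehicle and 100% = native peptide agonist; compound fluorescence can raise it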
# * hit, by the source's call; & = joins results of further samples. The list is partial (hit frequency here may not be typical).
SMILES,NPYLR7 agonist,NPYLR7 agonist max-min
C=C(C)CN(CC)C(=O)C(C)N1CCN(CC(C)O)CC1 (centres undefined),6.9,4.4
CCCNS(=O)(=O)c1ccc(-c2n[nH]c(CCc3ccccc3)n2)cc1,11.2,5.5
O=C(Cc1ccccn1)N1CCC(C(O)c2cccs2)CC1 (centres undefined),3.4,0.0
CCOc1ccccc1N1CCN(C(=O)c2cc(-c3ccccc3OC)nc3cc(-c4ccc(Cl)cc4)nn23)CC1,-6.1&18.9,1.5&17.5
O=C(NC1CCS(=O)(=O)C1)C12CC3CC(CC(C3)C1)C2 (centres undefined),-0.6,-1.9
CCc1ccccc1NC(=O)N(CCOC)CC(=O)N(CCc1c[nH]c2ccccc12)Cc1ccc(F)cc1,19.2,19.3
CN(C)C(CNS(=O)(=O)c1ccc(F)cc1)c1cccn1C (centres undefined),10.4,9.6
O=C(NCc1ccc2c(c1)OCO2)c1csc(COc2ccccc2Cl)n1,4.9,11.1
Cc1ccccc1-n1ccnc1SCCN1CCOC1=O,3.5,-0.8
O=C(CC1(O)C(=O)Nc2ccc(Br)cc21)c1ccc2c(c1)OCO2 (centres undefined),5.9,1.0
CN(C)S(=O)(=O)N1CCCC(C(=O)c2ccc(C(F)(F)F)cc2)C1 (centres undefined),0.8,-2.7
CC1CCCCN1c1onc(-c2ccccc2)c1CNCCN(C)C (centres undefined),19.2,16.2
COc1ccc(CN2CN(C(C)C)CSC2=S)cc1,23.7,22.6
Cn1cc(I)c(-c2nc(-c3nonc3N)no2)n1,-1.6,-5.3
O=C(NCCCO)c1ccc2nc(-c3ccccc3)c(-c3ccccc3)nc2c1,-11.4,-17.2
CCOC(=O)c1c(NC(=O)c2cccs2)sc(C(=O)Nc2ccccc2OC)c1C,-6.3,-10.5
CSCCC(C(=O)NC1=NCCS1)N1C(=O)c2ccccc2C1=O (centres undefined),-6.5,-8.9
CC(C)C(C(=O)O)n1cncn1 (centres undefined),0.1,-1.7
Cc1ccccc1Cn1nc(-c2cccs2)ccc1=O,1.4,-0.4
CC1CCN(C(=O)CCNC(=O)[C@@H]2C[C@@H]3C=C[C@H]2C3)CC1,30.2,21.8
c1ccc(CNc2nccnc2-c2cccs2)cc1,-2.6,-6.7
Cc1ccccc1-c1nc(OCC(C)C)nn1-c1ccc(NC(=O)/C=C/c2ccc([N+](=O)[O-])cc2)cc1,9.7,12.1
COc1ccccc1N1CCN(C2CCCN(Cc3ccc4nonc4c3)C2)CC1 (centres undefined),17.5,8.4
CCn1c(C2CCCN(C(=O)c3cc(C)c(C)n(C)c3=O)C2)nn(C)c1=O (centres undefined),4.5,2.2
Cc1ccc(C(=O)O)cc1NS(=O)(=O)c1ccc(Cl)cc1,-8.3,-9.8

# 4 compounds from above, sorted by formula weight, smallest number first:
SMILES,NPYLR7 agonist,NPYLR7 agonist max-min
Cn1cc(I)c(-c2nc(-c3nonc3N)no2)n1,-1.6,-5.3
O=C(NCCCO)c1ccc2nc(-c3ccccc3)c(-c3ccccc3)nc2c1,-11.4,-17.2
Cc1ccccc1-c1nc(OCC(C)C)nn1-c1ccc(NC(=O)/C=C/c2ccc([N+](=O)[O-])cc2)cc1,9.7,12.1
CCOc1ccccc1N1CCN(C(=O)c2cc(-c3ccccc3OC)nc3cc(-c4ccc(Cl)cc4)nn23)CC1,-6.1&18.9,1.5&17.5

# Next part
SMILES,NPYLR7 agonist,NPYLR7 agonist max-min
CCN1CC(CCN2CCOCC2)C(C(c2ccccc2)c2ccccc2)C1=O (centres undefined),5.1,5.5
COCC(=O)N1CCC(=O)N(CCC#N)C[C@H]2COc3ccccc3[C@H]21,0.7,10.9
CC(C)c1ccc(-n2c(-c3snnc3-c3ccccc3)n[nH]c2=S)cc1,-6.6,-9.3
CCCCN(CCC(=O)NCCCN1CCCCC1C)c1nc(Cc2cccc(OC)c2)ns1 (centres undefined),8.7,16.9
CCCN(CCC(=O)NC(C)c1ccccc1)c1nc(-c2cccc(Br)c2)nc2ccccc12 (centres undefined),28.6,25.9
CSC(C)C(=O)NCc1cccnc1Oc1c(C)cccc1C (centres undefined),-0.5,-1.8
COc1cc(-c2nnc(SCCSC)o2)cc(OC)c1OC,-0.4,-1.3
Cc1ccccc1CCNC(=O)c1c(C)nn(C)c1C,1.3,-0.1
CC(O)(c1ccccc1)c1nc(-c2ccoc2)cs1 (centres undefined),2.3,-1.2
CCc1ccc(S(=O)(=O)N2CCCC(CNC(=O)c3ccccc3Cl)C2)cc1 (centres undefined),5.3,3.5
COCCN1CCC(C(=O)NC23CC4CC(C2)CC(n2cncn2)(C4)C3)C1 (centres undefined),17.4,8.9
CC1(C)CC(NS(=O)(=O)c2ccc(S(N)(=O)=O)cc2)CC(C)(C)N1,3.5,0.2
O=C(Nc1ccc(Oc2ccccc2F)cc1)C1CCCCN1C(=O)c1ccncc1 (centres undefined),1.4,3.6
O=C(CCC1CCN(C(=O)C(=O)c2ccco2)CC1)Nc1ccc(F)c(Cl)c1,7.6,2.7
CN(CC(=O)O)S(=O)(=O)c1ccc(Br)cc1,-0.6,-1.0
CC1C(=O)N(c2ccccc2-c2ccccc2)CCN1S(=O)(=O)c1ccccc1 (centres undefined),-3.3,6.6
Cc1ccc(C)c(C2=NN(C(=O)CN3CCC4(CC3)OCCO4)C(c3ccccc3)C2)c1 (centres undefined),11.0,9.8
Nc1cc(-c2cccc(C(F)(F)F)c2)nn1-c1ccc(C(=O)NC(c2ccccc2)c2ccccn2)cc1 (centres undefined),-7.4,-12.9
Cc1ccccc1-c1cnc(-c2ccncc2)nc1C1CCCN(Cc2ccsc2)C1 (centres undefined),21.0,5.1
C=CCn1c(C)c(C)n2c3c(=O)n(CCOCC)c(=O)n(C)c3nc12,8.8,2.0
COc1ccc(NC(=O)N(CCN2CCOCC2)CC(=O)N(Cc2ccc3c(c2)OCO3)Cc2ccco2)cc1,-5.1,-6.1
N#Cc1ccsc1NC(=O)COC(=O)c1cccc(C(F)(F)F)c1,-0.3,-2.2
CNC(=O)[C@@H]1C[C@@H](N)CN1C(=O)c1ccc(-c2ccc(OC)cc2)o1,-5.1,-14.4
CSc1nnc2c(n1)OC(c1cc(Br)c(OC(=O)c3ccc([N+](=O)[O-])cc3)c(Br)c1)Nc1ccccc1-2 (centres undefined),6.5,20.3
CC(C)(C)c1nc(CN2CCCNCC2)no1,1.8,-0.2
# Following part:
SMILES,NPYLR7 agonist,NPYLR7 agonist max-min
O=[N+]([O-])c1cc(C(F)(F)F)ccc1-n1cncn1,12.6,12.1
O=C(C1CC1)N1CCN(c2nccn2-c2ccccc2F)CC1,4.4,10.9
CCOc1cnn(-c2ccc(Cl)cc2)c(=O)c1Nc1ccc(C(=O)NCCN2CCOCC2)cc1,-10.4,0.5
CCC(C(=O)N1CC(c2ccncc2)C1)N1Cc2ccccc2C1=O (centres undefined),4.5,-5.1
O=c1[nH]n2c(=O)c3c([nH]c2c1Cc1cccc(Br)c1)CCCC3,2.3,6.4
COc1ccccc1N=C1SC(C(=O)Nc2ccc(C(=O)O)cc2)CC(=O)N1C (centres undefined),-0.7,-2.9
Cc1cnc(C)c(N2CC[C@@H](N3CCN(CCc4ccccc4)CC3)[C@H](O)C2)n1,0.4,-0.3
CCCCC1NC(=S)N(C2CCCCC2)C1=O (centres undefined),8.3,16.3
OC(COCc1ccco1)CN(Cc1ccccc1)CC1CC(c2ccccc2)=NO1 (centres undefined),-2.6,2.5
CCC(C(=O)Nc1nnc(SCc2cccc([N+](=O)[O-])c2)s1)c1ccccc1 (centres undefined),-7.7,0.4
Cc1cccc2c1OCCC/C2=N/Nc1ncccc1Cl,13.4,9.0
Cc1nccn1CCC(=O)N1CCC2(CCCN(Cc3ccc(C(C)C)cc3)C2)C1 (centres undefined),4.3,-0.2
Cc1ccc(S(=O)(=O)NC(=O)NN2CCCCCC2)cc1,1.1&-1.8&-18.4&2.8,-0.9&-6.1&-20.3&36.6
CC(=O)NC(=O)CSc1nc2nc(C)cc(C)n2n1,4.9,5.5
Cc1c(C(=O)NCc2ccc(F)cc2)sc(=O)n1Cc1ccc(S(C)(=O)=O)cc1,14.8,6.2
COc1ccc(-c2cc(C(=O)NCc3ccc(F)cc3)n(-c3cccc(Cl)c3)n2)c(OC)c1,24.8,17.9
CN(C)N=Cc1cc([N+](=O)[O-])ccc1O,0.3,-5.6
COc1ccc(C2CC(=O)C3=C(C2)N=C(C)C(C(=O)OCC(C)C)C3c2ccc(Cl)cc2)cc1 (centres undefined),-4.4,-5.6
Cc1cc(C(F)(F)F)n2nc(C(=O)N3CCCC(c4ccn[nH]4)C3)cc2n1 (centres undefined),28.7,16.4
COc1ccc(-n2nnc3c(=O)n(CC(=O)c4ccccc4)cnc32)cc1OC,-0.6,-8.6
CNC(=O)[C@@]1(OCc2cccc(C(F)(F)F)c2)CC(OCc2cccc(F)c2F)[C@@H]2OC(C)(C)O[C@@H]2C1 (some centres undefined),10.3,19.2
CC(=O)Oc1ccc2c(=O)c(-c3nc4ccccc4s3)coc2c1,-4.1,-7.9
C=CCn1c(=O)c2c(nc3n2CCCN3c2ccc(CCCC)cc2)n(C)c1=O,-1.6,-3.8
CCC(C(=O)N1CCC2(CC1)NC(=O)c1cccc(C)c1N2)c1ccccc1 (centres undefined),-0.2,5.3
Cc1ccc(CNC(=O)CN2CCC(c3nc4ccccc4s3)CC2)cc1,6.8,10.6

# Continued; the last four above are carried over.
SMILES,NPYLR7 agonist,NPYLR7 agonist max-min
CC(=O)Oc1ccc2c(=O)c(-c3nc4ccccc4s3)coc2c1,-4.1,-7.9
C=CCn1c(=O)c2c(nc3n2CCCN3c2ccc(CCCC)cc2)n(C)c1=O,-1.6,-3.8
CCC(C(=O)N1CCC2(CC1)NC(=O)c1cccc(C)c1N2)c1ccccc1 (centres undefined),-0.2,5.3
Cc1ccc(CNC(=O)CN2CCC(c3nc4ccccc4s3)CC2)cc1,6.8,10.6
CC(C)CN1C(=O)N(Cc2ccccn2)C(=O)C12CCN(Cc1ccc(N3CCCC3)cc1)CC2,10.0,-3.8
CCc1nnc2c(=O)n(-c3ccc(OC)cc3)ccn12,2.1,-9.3
CN1CCC2(CCN(C(=O)c3ccccc3-c3ncn[nH]3)CC2)C1,-0.2,12.6
O=C(CN(C(=O)C1CCCCC1)C1CC1)Nc1nc(CC(=O)NC(Cc2ccccc2)c2ccccc2)cs1 (centres undefined),-2.1,4.8
COc1ccccc1-c1ccc2c(c1)C(C)(Cc1ccccc1OC(F)(F)F)C(=O)N2 (centres undefined),2.0,1.8
c1coc(-c2noc(CN3CCc4[nH]cnc4C34CCCCC4)n2)c1,29.9,21.4
CCC(CC)C(=O)Nc1nnc(SCC(=O)Nc2cccc(C)c2)s1,-6.3,-12.5
COCCCCNc1cccc(C(=O)N2CCSCC2)c1,1.6,-0.5
CSc1ccc(NC(=O)C(C)(C)CC(C)C)cn1,5.1,4.0
CCCC(=O)Nc1cc(C(=O)N2CCCCCC2)cn(C)c1=O,-16.0,-23.6
Cc1cc(N(C)/N=C\c2ccccc2)nc(-c2ccccc2O)n1,-6.0,-8.7
O=C(CN1C(=O)NC2(CCCCC2)C1=O)N(Cc1ccco1)Cc1cccs1,1.7,8.3
CC(C)(C)c1ccc(C2c3ccsc3CCN2C(=O)CN(C(=O)C2C[C@H]2c2ccccc2)C2CC2)cc1 (some centres undefined),20.2,14.8
O=C(c1csc(CSc2nnc(-c3cccnc3)n2-c2ccccc2F)n1)N1CCN(C/C=C/c2ccccc2)CC1,-2.5,12.3
CCOP(=O)(Cc1ccc(NC(=O)c2cccc(Br)c2)cc1)OCC,-8.3,-13.7
CC1(C(=O)Nc2ccccc2Br)CCN1C(=O)c1ccccc1CCc1ccccc1 (centres undefined),10.2,8.9
CN(Cc1ccc2cccc(Cl)c2n1)Cc1nc(-c2cccnc2)no1,6.3,4.6
COc1ccc(C2=N/C(=C\c3ccc(SC)cc3)C(=O)O2)cc1[N+](=O)[O-],21.7,32.5
CC(C)c1nn(Cc2ccccc2F)c(=O)c2c1cnn2-c1ccccc1,5.9,1.8
CSCC(=O)N1CCC(n2c(C)nc3ccc(F)cc32)CC1,-1.2,2.7
COc1ccc(C(C)NS(=O)(=O)c2ccc(Cl)cc2C(F)(F)F)cc1F (centres undefined),107.5*,168.7*
c1ccc(CN2CN=C3NC(c4ccco4)n4c(nc5ccccc54)N3C2)nc1 (centres undefined),2.2,1.7
CCn1c(O)c(N=Nc2ccccc2C(F)(F)F)c2ccccc21,1.0,-2.5
COCCOC(=O)C1=C(C)NC(=O)NC1c1ccc(N(C)C)cc1 (centres undefined),1.0,-3.9
Cc1ccc2c(c1)oc(=O)n2C1CCN(C(=O)c2cc(F)cc(F)c2)CC1,5.3,3.3
# Further compounds.
SMILES,NPYLR7 agonist,NPYLR7 agonist max-min
CCc1[nH]n(-c2ccc(Cl)c(Cl)c2)c(=O)c1C1=C(N2CCN(C)CC2)C(=O)N(Cc2ccc(F)cc2)C1=O,25.7,23.3
Cc1noc(C)c1S(=O)(=O)N1CCN(Cc2cccc(Cl)c2)CC1,13.2,3.5
CCOc1ccc(-n2c(SC(C)CC)nc3c(c2=O)SCC3)cc1 (centres undefined),0.6,43.6
CCC(CC)NC(=O)CCc1nc2cc(S(=O)(=O)N3CCCCC3)ccc2n1C,3.6,2.9
CCOC(=O)[C@@H]1[C@@H](OC)C(=O)N(C)C12CCN(C(=O)N1CCOCC1)CC2,1.5,2.0
CNC(=O)C(C)Sc1nnnn1-c1ccc(C)cc1C (centres undefined),3.1,-1.9
CC(c1nc2ccccc2s1)N(C)CC(=O)Nc1c(F)cccc1F (centres undefined),3.2,6.3
CCn1c(O)c(C=Nc2ccc(Nc3ccccc3)cc2)c(=O)n(CC)c1=S,-3.0,-8.2
Clc1ccc(OCCCN2CCCC2)cc1Cl,-1.7,-2.9
Cc1cc(O)ccc1NC(=O)CC(NCC(C)C)C(=O)O (centres undefined),11.7,9.6
CCc1ccc(-n2cnnc2)cc1N,2.2,-1.0
